# Mtb MbtI inh: blocks the Mycobacterium tuberculosis siderophore enzyme MbtI | P9WFX0 | inhibition, %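 (about 17 µg/mL by stock and volumes)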 | actives 0.89% (n = 100,000) | AID 493033 | purified MbtI enzyme, fluorescence intensity read-out;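 active = above 50% in both replicates, above 80% if mildly self-fluorescent; inactive = the rest, strongly fluorescent compounds included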;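 also: 0% = mean of negative and 100% = mean of positive controls; one replicate is shown; some compounds called inactive have numbers as strong as hits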
# Polio RdRp inh: poliovirus RNA polymerase inhibition | P03300 | poliovirus polymerase elongation, fluorescence polarization; hits give low values | % elongation, % (compound at 16.7 µg/mL) | actives 0.66% (n = 150,000) | AID 588519; in the data active = % elongation below about 90%; also: some results filed as inactive read as strong as hits
# Target sequence (P03300 1749-2209 limits assumed): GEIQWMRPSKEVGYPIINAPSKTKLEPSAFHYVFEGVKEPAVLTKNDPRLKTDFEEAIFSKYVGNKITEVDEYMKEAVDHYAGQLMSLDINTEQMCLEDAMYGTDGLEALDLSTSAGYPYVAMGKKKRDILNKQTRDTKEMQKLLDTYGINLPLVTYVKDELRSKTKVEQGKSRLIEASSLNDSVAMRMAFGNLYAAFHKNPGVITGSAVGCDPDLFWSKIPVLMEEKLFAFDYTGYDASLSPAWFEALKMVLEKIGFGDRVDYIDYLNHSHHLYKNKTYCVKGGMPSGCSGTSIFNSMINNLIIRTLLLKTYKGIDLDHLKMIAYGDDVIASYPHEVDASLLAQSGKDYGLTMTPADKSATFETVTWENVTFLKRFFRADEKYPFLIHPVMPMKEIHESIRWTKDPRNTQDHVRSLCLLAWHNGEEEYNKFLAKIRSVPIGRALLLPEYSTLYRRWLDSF
# Mtb MenB inh: Mtb MenB enzyme inhibition; inhibition, %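 (about 12 µg/mL by stock and volumes)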; MenB enzyme assay, absorbance read-out; some hits fall short of the stated cut; actives 0.43% (n = 100,000);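 active = mean of two replicates above 30%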;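 also: 0% = no compound and 100% = wells with inactive enzyme; the first replicate is given; strong numbers were not always called active; inactives centre near -10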
# Target sequence (P9WNP5 whole entry, looked up): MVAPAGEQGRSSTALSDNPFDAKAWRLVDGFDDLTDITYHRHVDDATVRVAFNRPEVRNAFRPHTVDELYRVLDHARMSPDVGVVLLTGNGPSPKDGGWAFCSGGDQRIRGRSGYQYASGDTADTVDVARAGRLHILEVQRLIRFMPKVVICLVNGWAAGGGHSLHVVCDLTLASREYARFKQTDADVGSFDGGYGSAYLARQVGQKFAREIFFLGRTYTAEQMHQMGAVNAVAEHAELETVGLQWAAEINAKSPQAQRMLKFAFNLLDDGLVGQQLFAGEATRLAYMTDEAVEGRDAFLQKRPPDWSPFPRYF
# Polio RdRp inh intensity: further read-out of Polio RdRp inh, marked with its call; % elongation; measured here: total intensity read-out; formula for this scale not given here;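 total fluorescence in place of polarization; lower means less elongation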
# The depositor's hits bear a star; · = not tested or not shown.
(1) CC(C)c1ccc(S(=O)(=O)C2C(=O)N(C)C3(C)CC2c2ccccc2O3)cc1 (configuration not stated)
(2) COc1ccc2nc(SCC(=O)NN3C(=O)NC4(CCCCC4)C3=O)[nH]c2c1
(3) O=C(CSc1nncn1-c1ccccc1)c1ccccc1
(4) O=C(Nc1cccc(Cl)c1)C1=CC(=O)N2CCCN=C2S1
(5) CC(C)c1cc(=O)n2c([nH]c3ccccc32)c1C#N
(6) N#Cc1c(-c2ccccc2)nc(SCC(=O)OC2CCCC2)[nH]c1=O
(7) Cc1oc(-c2ccccc2)[n+]([O-])c1C
(8) CN1C(=O)C(Cc2nc3ccccc3c(=O)n2-c2ccccc2)c2ccccc21 (configuration not stated)
(9) Cc1nnc(NC(=O)CSc2nnc(COc3ccc4c(c3)CCCC4)n2C)s1
(10) CCOC(=O)c1ccc2ncc3c(-c4ccccc4)nn(-c4ccccc4)c3c2c1

entry no.,1,2,3,4,5,6,7,8,9,10
Mtb MenB inh,1,-26,0,-25,5,-9,-19,15,-39,-23
Polio RdRp inh intensity,103,92,104,102,99,101,100,100,102,98
Mtb MbtI inh,-11,16,38,24,104,-10,12,0,-5,-3
Polio RdRp inh,100,100,100,100,100,99,101,101,102,102

(11) N#Cc1ccc(NCC(=O)Nc2ccc(N3CCOCC3)cc2)cc1
(12) O=C(CN1c2ccccc2S(=O)(=O)c2ccccc21)N1CCCCC1
(13) C=CCOc1ccc(/C=C2\Oc3ccc(C(=O)OC)cc3C2=O)cc1
(14) CN1C(=O)c2ccc(NC(=O)c3ccc4ncsc4c3)cc2C1=O
(15) COc1ccccc1N1CC(C(=O)OC(C)C(=O)N2CCCc3ccccc32)CC1=O (configuration not stated)
(16) Cc1ccc(CNC(=O)COC(=O)c2ccccc2NCCO)cc1
(17) Cc1[nH]c(C)c(S(=O)(=O)NC2CCCCCC2)c1C(=O)N1CCCC1
(18) Cc1ccc(C(=O)CSc2nccc(=O)[nH]2)cc1
(19) CC(=O)OC1OCCOC1OC(C)=O (configuration not stated)
(20) N=c1c(C(N)=S)cnc2ccccn12

entry no.,11,12,13,14,15,16,17,18,19,20
Mtb MenB inh,2,-30,-1,-30,-22,-23,-6,-22,-28,-63
Polio RdRp inh intensity,108,103,108,98,108,104,101,91,104,116
Mtb MbtI inh,-20,-18,-11,1,-2,110,3,2,-5,·
Polio RdRp inh,104,102,100,100,105,108,100,102,101,106

# Record cards, as listed above.
# CCOC(=O)c1ccc2ncc3c(-c4ccccc4)nn(-c4ccccc4)c3c2c1 as listed: Mtb MenB inh = -23; Polio RdRp inh intensity = 98; Mtb MbtI inh = -3; Polio RdRp inh = 102
# CC(=O)OC1OCCOC1OC(C)=O (configuration not stated) as listed: Mtb MenB inh = -28; Polio RdRp inh intensity = 104; Mtb MbtI inh = -5; Polio RdRp inh = 101

# (continued)
(21) CC(NC(=O)c1ccc(C(C)(C)C)cc1)c1ccncc1 (configuration not stated)
(22) COCC(C)N1CC(C(=O)Nc2nnc(CCc3ccccc3)s2)CC1=O (configuration not stated)
(23) CCCCN(C)C(=O)c1nc(-c2ccc(C)cc2)n2c1CCCCC2
(24) CCOC(CCn1c(SCC(N)=O)nc2c(sc3ccccc32)c1=O)OCC
(25) NC(CC(=O)O)c1cccc(O)c1 (configuration not stated)
(26) Cc1c(C#N)c(NC(=O)c2ccc(Cl)cc2)n(CC2CC2)c1C
(27) COc1ccc(C(CC(=O)NCc2cccs2)n2cccc2)cc1 (configuration not stated)
(28) CCc1nc(C)ccc1O
(29) Cc1[nH]c(=O)c(C#N)cc1-c1ccncc1
(30) CC(Oc1ccc(C(=O)c2ccccc2)cc1)C(=O)NN (configuration not stated)

entry no.,21,22,23,24,25,26,27,28,29,30
Mtb MenB inh,-25,-13,-19,2,-8,-13,7,-22,-2,-23
Polio RdRp inh intensity,104,102,103,102,95,101,104,102,102,98
Mtb MbtI inh,-10,3,-11,-7,3,4,-10,-121,-113,5
Polio RdRp inh,104,100,104,98,99,103,99,104,100,100

(31) COC(=O)N/N=C1\CC2CCC1(C)C2(C)C (configuration not stated)
(32) O=C(NC1CCCCC1)N(Cc1nc2ccccc2c(=O)[nH]1)C1CCCC1
(33) COc1ccc(C2=[N+]([O-])C(C)(C)N(O)C2C)cc1 (configuration not stated)
(34) O=C(CC12CC3CC(CC(C3)C1)C2)N1CCCC1
(35) Cc1ccc(O)c(C(=O)c2coc(=N)c(C(=O)NC(C)C)c2)c1
(36) COC(=O)c1cnc2c(C(F)(F)F)cccc2c1OC
(37) CC1CC(C)CN(C(=O)c2ccc(N3CC4CC(C3)c3cccc(=O)n3C4)c(NC(=O)c3ccc(F)cc3)c2)C1 (configuration not stated)
(38) Cc1ccc(NS(=O)(=O)c2ccc(NC(=O)CCC(=O)O)cc2)cc1C
(39) COc1ccc2c(c1)c(C(=O)n1ccnc1)c(C)n2C1CCCCC1
(40) COc1ccc(-c2cc(C(F)(F)F)c(C#N)c(SCCCn3c(=O)[nH]c4ccccc43)n2)cc1

entry no.,31,32,33,34,35,36,37,38,39,40
Mtb MenB inh,-3,12,-26,-25,-12,2,-7,-1,-24,-6
Polio RdRp inh intensity,104,100,100,109,114,102,103,113,96,107
Mtb MbtI inh,4,6,15,5,-1,4,-25,-11,-18,49
Polio RdRp inh,101,101,107,105,110,102,102,103,99,101

(41) CCn1cc(SCC(=O)NCc2ccc3c(c2)OCO3)c2ccccc21
(42) O=C(CCN1CCCCC1)N1N=C(c2ccc(Cl)cc2)CC1c1ccco1 (configuration not stated)
(43) O=C(COc1ccc2c(c1)CCC2)N1CCC2(CC1)OCCO2
(44) CCC(=O)Nc1nnc(-c2cccc(OC)c2)o1
(45) CC(=O)n1c2ccccc2c2nc(-c3ccncc3)sc21
(46) COC(=O)C1=C(C)NC(=O)C12C(C#N)=C(N)Oc1ccccc12 (configuration not stated)
(47) COc1ccc(CC(N)=O)cc1OC
(48) CCSc1nnc(SCC(=O)c2cc(C)n(C)c2C)s1
(49) CC1(C)OC(=O)C(=C2SCCCS2)C(=O)O1
(50) COc1cc(C(=O)OCC(=O)c2cc3c4c(c2)CC(=O)N4CCC3)ccc1OC(F)F

entry no.,41,42,43,44,45,46,47,48,49,50
Mtb MenB inh,-27,-14,-21,-25,-22,-28,5,2,4,1
Polio RdRp inh intensity,104,104,104,107,99,103,102,98,110,105
Mtb MbtI inh,6,11,-13,12,4,0,-8,5,-12,2
Polio RdRp inh,100,100,101,102,102,101,100,107,107,104

(51) NC(=O)CSc1nc2ccccc2n1S(=O)(=O)c1ccccc1
(52) NC(=O)c1ccsc1NC(=O)c1cccs1
(53) NC(=O)CSc1nnc2c(n1)CCCC2
(54) COc1ccc(-c2nnc(SCC(=O)OC(C)C)o2)cc1
(55) Cc1nonc1NC(=O)C(C)Oc1ccc(F)cc1 (configuration not stated)
(56) Cc1noc(C)c1COc1ccc(CC(=O)Nc2ccc3c(c2)OCO3)cc1
(57) COc1ccc(CN2CN=C(Nc3nc4ccccc4o3)NC2)cc1
(58) O=C1CCCC2=C1Sc1ccccc1N2
(59) O=C(CCCOc1ccccc1)OCc1cc(=O)oc2cc(O)ccc12
(60) COCCn1c(SCc2csc(-c3cc(Br)ccc3OC)n2)nc2ccccc21

entry no.,51,52,53,54,55,56,57,58,59,60
Mtb MenB inh,-46,-8,9,16,-16,-40,-5,-62,-6,0
Polio RdRp inh intensity,100,110,102,100,102,106,102,141,108,107
Mtb MbtI inh,-1,-26,2,-4,-8,-10,-8,6,-60,-12
Polio RdRp inh,101,102,103,99,103,103,100,85,104,100

(61) CC(CNS(=O)(=O)c1ccccc1)Sc1ncccn1 (configuration not stated)
(62) Oc1ccc2ccccc2c1C=Nc1cccn2cc(-c3ccccc3)nc12
(63) Cn1c(N)nc(O)c1/C=C1/C=Nc2ccccc21
(64) O=C(c1ccc(Cl)nc1)N1CCC(Cc2ccccc2)CC1
(65) Cc1cccc(N2C(=O)CSC23CCCCC3)c1
(66) CC1CN(c2nc3ccccc3nc2C(C#N)C#N)CC(C)O1 (configuration not stated)
(67) Cc1ccccc1N=C1C(=O)N(CN2CCC(C)CC2)c2ccccc21
(68) CN(C)S(=O)(=O)c1ccc(NC(=O)COc2ccccc2)cc1
(69) Cc1cccnc1NC(=O)c1cc2ccccc2oc1=O
(70) O=C(O)CCCCCn1c(SCC(=O)c2ccc(O)c(O)c2)nc2ccsc2c1=O

entry no.,61,62,63,64,65,66,67,68,69,70
Mtb MenB inh,-3,-14,-468,·,12,-11,-47,-23,·,-5
Polio RdRp inh intensity,103,109,110,105,100,112,98,99,106,101
Mtb MbtI inh,-3,-8,28,-5,6,4,-8,-8,-3,-7
Polio RdRp inh,101,101,108,100,101,102,102,104,101,101

(71) C=C(C)C1=NC(C)(C)CC(C)O1 (configuration not stated)
(72) O=C(N1CCCC1)C12CC3CC(CC(C3)C1)C2
(73) COc1ccc(-c2nc3ccccc3n2C(=O)c2ccccc2C(=O)O)cc1OC
(74) O=C(OCCN1CCCC1=O)c1ccco1
(75) Cc1ccc(S(=O)(=O)NC2CCOC(C)(C)C2)cc1 (configuration not stated)
(76) O=C(OCC(=O)N1CCCCC1)c1cc2ccccc2oc1=O
(77) C#CCNCc1ccco1
(78) CC(C)N(C(=O)c1ccc(-c2ccccc2F)cc1)C(C)C
(79) COc1cc(OC)c(OC)cc1CN1CCN(C(=O)c2ccco2)CC1
(80) COC(=O)Cc1c(C)nc2nc[nH]n2c1=O

entry no.,71,72,73,74,75,76,77,78,79,80
Mtb MenB inh,-6,-15,-18,·,-13,2,13,-17,-5,1
Polio RdRp inh intensity,115,101,104,96,101,106,103,112,100,106
Mtb MbtI inh,·,1,104,-5,-2,105,-7,-10,·,-7
Polio RdRp inh,112,103,102,100,101,103,102,104,99,100

(81) Cn1c(=O)c2c(nc(CN3CCN(CCO)CC3)n2CCCc2ccccc2)n(C)c1=O
(82) Cc1cc(C(=O)N(C)c2c(N)n(Cc3ccccc3)c(=O)[nH]c2=O)c(C)o1
(83) Cc1cc(NC(=O)Nc2cccs2)no1
(84) O=C(NCc1ccccc1)c1cccnc1N1CCCC1

entry no.,81,82,83,84
Mtb MenB inh,22,-34,10,7
Polio RdRp inh intensity,101,97,102,101
Mtb MbtI inh,-4,-10,6,23
Polio RdRp inh,102,104,103,101

# Grouped by structure: those above containing an NH in an aromatic ring.
(2) COc1ccc2nc(SCC(=O)NN3C(=O)NC4(CCCCC4)C3=O)[nH]c2c1
(5) CC(C)c1cc(=O)n2c([nH]c3ccccc32)c1C#N
(6) N#Cc1c(-c2ccccc2)nc(SCC(=O)OC2CCCC2)[nH]c1=O
(17) Cc1[nH]c(C)c(S(=O)(=O)NC2CCCCCC2)c1C(=O)N1CCCC1
(18) Cc1ccc(C(=O)CSc2nccc(=O)[nH]2)cc1
(29) Cc1[nH]c(=O)c(C#N)cc1-c1ccncc1
(32) O=C(NC1CCCCC1)N(Cc1nc2ccccc2c(=O)[nH]1)C1CCCC1
(40) COc1ccc(-c2cc(C(F)(F)F)c(C#N)c(SCCCn3c(=O)[nH]c4ccccc43)n2)cc1
(80) COC(=O)Cc1c(C)nc2nc[nH]n2c1=O
(82) Cc1cc(C(=O)N(C)c2c(N)n(Cc3ccccc3)c(=O)[nH]c2=O)c(C)o1

entry no.,2,5,6,17,18,29,32,40,80,82
Mtb MenB inh,-26,5,-9,-6,-22,-2,12,-6,1,-34
Polio RdRp inh intensity,92,99,101,101,91,102,100,107,106,97
Mtb MbtI inh,16,104,-10,3,2,-113,6,49,-7,-10
Polio RdRp inh,100,100,99,100,102,100,101,101,100,104
